# High-throughput results deposited in PubChem BioAssay by several laboratories.
# T cruzi inh – T. cruzi replication inhibition. 300,000 compounds, 1.4% hits. T. cruzi beta-gal in NIH3T3, luminescence, 90 h. inhibition, % (test concentration not listed);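 active = mean inhibition across valid replicates above about 55%, limit read from the data; inconclusive = mean below that limit but half or more replicates reach it; inactive = mean below it, under half of replicates reach it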;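 also: signal also drops with host cell toxicity which is not excluded here; 0% = plate median of DMSO wells and 100% = zero luminescence signal; higher percent means less beta-gal luminescence so fewer parasites; stock transfer was 50 nL into about 50 µL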
# MLL AF4-AF9 inh – MLL-AF4/AF9 protein interaction inhibition; inhibition, % at 10 µM; AlphaScreen, biotin-AF4 peptide binding to FLAG-AF9; 350,000 compounds, 0.47% hits; AID 651704; P42568;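 active = every replicate reaching a set inhibition limit, whatever the replicate mean, cut at about 25% in these data; inconclusive = mean inhibition reaches that limit but some replicates miss it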;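 also: 0% = plate neutral control median and 100% = total signal loss; the record names both 10 and 1 µM as test concentration; the first replicate is given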
# Target sequence (P42568 whole entry, looked up): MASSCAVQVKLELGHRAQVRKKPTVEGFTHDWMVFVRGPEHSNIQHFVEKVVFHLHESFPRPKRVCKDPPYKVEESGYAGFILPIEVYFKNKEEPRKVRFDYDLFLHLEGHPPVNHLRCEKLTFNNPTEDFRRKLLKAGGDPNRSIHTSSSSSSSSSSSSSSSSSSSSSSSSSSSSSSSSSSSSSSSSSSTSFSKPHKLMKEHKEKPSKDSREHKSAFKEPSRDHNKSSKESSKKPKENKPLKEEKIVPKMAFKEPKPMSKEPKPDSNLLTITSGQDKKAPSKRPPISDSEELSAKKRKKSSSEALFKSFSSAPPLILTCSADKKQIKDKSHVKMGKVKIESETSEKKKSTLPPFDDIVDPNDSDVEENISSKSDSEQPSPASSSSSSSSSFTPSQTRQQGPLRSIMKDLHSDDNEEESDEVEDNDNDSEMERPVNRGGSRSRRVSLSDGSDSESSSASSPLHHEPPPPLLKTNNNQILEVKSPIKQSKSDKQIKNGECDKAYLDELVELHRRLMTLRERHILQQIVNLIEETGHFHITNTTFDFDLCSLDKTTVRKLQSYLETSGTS
# Beta apoptosis – beta cell apoptosis inhibition; INS-1E cytokine-induced death, ATP luminescence, 48 h; percent of positive-control rescue, neutral wells zero; protection from apoptosis, % (no concentration beside the values); 300,000 compounds, 0.8% hits;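 active = all replicates at 75% or more, or half of them and the mean; inconclusive = half reach 75% but not the mean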;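 also: 0% = cytokine-treated negative control wells and 100% = positive control rescue; higher means more ATP so stronger rescue from cytokine killing; wells of about 40 µL received 100 nL stock; the first replicate is given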
# UCH37 DUB inh – inhibitors of human deubiquitinating enzyme UCH37; inhibition, % (test concentration not listed); Q9Y5K5; AID 588478; 330,000 compounds, 0.33% hits; purified proteasome/UCH37, Ub-AMC cleavage fluorescence;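 active = mean of two replicates above 20%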;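 also: 0% = compound-free wells with enzyme and 100% = wells lacking proteasome; stock transfer was 100 nL into about 20 µL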
# Target sequence (Q9Y5K5 whole entry, looked up): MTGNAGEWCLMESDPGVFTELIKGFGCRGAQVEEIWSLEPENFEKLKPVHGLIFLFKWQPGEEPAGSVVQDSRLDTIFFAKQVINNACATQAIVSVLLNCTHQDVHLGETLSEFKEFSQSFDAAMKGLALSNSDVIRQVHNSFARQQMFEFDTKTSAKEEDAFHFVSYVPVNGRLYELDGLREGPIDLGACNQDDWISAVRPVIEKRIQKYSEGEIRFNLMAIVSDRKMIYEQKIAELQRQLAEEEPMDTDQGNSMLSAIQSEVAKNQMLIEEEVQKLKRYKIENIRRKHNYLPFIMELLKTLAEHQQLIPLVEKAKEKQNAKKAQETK
#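 System: Proteasome-associated human UCH37 deubiquitinase; Input: 0.15 nM proteasome in added enzyme buffer; Also added: Ub-AMC substrate from 1 µM stock; Incubation: 30 min compound-proteasome preincubation then 25 min substrate reaction, room temperature; Detection: fluorescence, ex 355 nm, em 460 nm; Read-out: % inhibition of Ub-AMC cleavage fluorescence; Benchmarks: no-proteasome and no-compound wells.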
# rRNA inh HTS – inhibits bacterial ribosomal RNA function over humanized ribosomes | E. coli WT GFP vs humanized-ribosome RFP mutants, fluorescence, 24 h; stronger effect = lower value; DMSO median 0, no signal -100 | GFP signal change (wild-type ribosome), % (concentration not given with the values) | 350,000 compounds, 1.6% hits;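 active = significant combined selectivity score with lowered wild-type GFP, culture density cut under 30%, mutant RFP and density less affected; inactive = any of these conditions unmet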; also: one replicate is shown; some compounds called inactive have numbers as strong as hits
# A1 inh – inhibitors of the anti-apoptotic protein A1, read as caspase activation; MEF A1-2A-BIM cells, Caspase-Glo 3/7 luminescence, 3 h; percent of clofoctol response, vehicle zero; caspase activation, % (no concentration beside the values); 330,000 compounds, 0.066% hits; AID 2462;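 active = over half of replicate activation scores above 10%, or exactly half above 10 with the replicate mean above 10; inconclusive = replicate mean below 10 yet half the replicates above 10; inactive = over half of replicates below 10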;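 also: wells of about 30 µL received 50 nL stock; many hits fall short of the cut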
# FGF22 binding – shifts melting point of recombinant human FGF22; recombinant FGF22 thermal shift, SYPRO orange fluorescence; percent of sucrose octasulfate shift, DMSO zero; calls only at 9.99 µM; Q9HCT0; 340,000 compounds, 1.5% hits; AID 651658;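 active = melting point raised past a set limit in the mean and every replicate; inconclusive = no clear call; three in four hits are not shown here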
# Target sequence (Q9HCT0 whole entry, looked up): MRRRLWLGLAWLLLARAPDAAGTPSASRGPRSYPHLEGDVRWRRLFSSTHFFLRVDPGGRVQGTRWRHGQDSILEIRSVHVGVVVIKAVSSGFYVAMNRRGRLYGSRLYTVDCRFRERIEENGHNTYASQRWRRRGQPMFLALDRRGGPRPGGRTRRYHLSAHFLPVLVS
# Ecoli growth – blocks Escherichia coli growth; OD600, 23 h; stronger effect = lower value; OD600 absorbance (test concentration not listed); 330,000 compounds, 0.21% hits; AID 1053175;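 active = OD600 absorbance below the run mean of sample wells minus 3.6 SD, in any replicate, cut at about 0.56 in these data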;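 also: stock transfer was 300 nL into about 60 µL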
# rRNA inh HTS OD600 – also measured in rRNA inh HTS; calls as there; OD600 change, %; measured here: OD600 growth;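 optical density of the mix in the first replicate; 0 = DMSO median and -100 = no signal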
# rRNA inh HTS RFP – second read-out of rRNA inh HTS, no call of its own (marks repeat the call); RFP signal change, %; measured here: RFP humanized mutant strains;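 first replicate; 0 = DMSO median and -100 = no signal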
# * = called active by the depositor; i = inactive; ? = inconclusive; . = not tested or not shown. The list is partial; count on the stated rates, not on these rows.
# Value order: T cruzi inh, MLL AF4-AF9 inh, Beta apoptosis, UCH37 DUB inh, rRNA inh HTS, rRNA inh HTS OD600, rRNA inh HTS RFP, A1 inh, FGF22 binding, Ecoli growth
CC(C)CN(C(=O)CCCOc1ccc(Cl)cc1Cl)c1c(N)n(Cc2ccccc2)c(=O)[nH]c1=O
  23, -0.4, 2, 5.3, 6, 7, 0.3, -0.3, i, 0.68
O=C(CCc1ccccc1)NNC(=O)c1ccccc1Br
  -8, ., 3, 1.1, ., ., ., -0.5, ., 0.71
COc1ccc(-c2cc(=O)oc3c(C)c(OCC(=O)NCCCn4ccnc4)ccc23)cc1
  35, -1.1, 0, -0.7, -8, -15, 9.1, -0.3, i, 0.73
O=C1CC(c2ccco2)Cc2nc(Nc3ccc(F)cc3)ncc21 (centres undefined)
  -4, ., -3, -7.5, ., ., ., -0.5, ., 0.73
O=C(NC1(C(F)(F)F)NC(=O)N(CCc2ccccc2)C1=O)C1CC1 (centres undefined)
  -11, -3.4, 1, 1.2, 0, 1, -1.1, -0.9, i, 0.71
CSc1ccc(S(=O)(=O)NCCSC(C)(C)C)cc1
  6, ., 3, -1.8, ., ., ., 0.9, ., 0.64
c1cncc(CNc2nc(-c3cccnc3)nc3ccccc23)c1
  4, 1.6, 5, 2.5, -4, -10, 1.4, -0.5, i, 0.66
CC(C(=O)NCC1CCCCC1)N(C)Cc1cccc(Cl)c1 (centres undefined)
  11, -2.5, -7, -0.7, -53, -78, -22, -0.2, i, 0.63
O=C(CCC1COc2ccccc2O1)NCC1COc2ccccc2O1 (centres undefined)
  5, ., 6, 2.4, ., ., ., -0.4, ., 0.69
O=C(NC1=NN(c2ccccc2)CC1)Nc1ccccc1F
  -11, 0.9, -11, -3.5, -32*, -2.4*, 1.3*, -0.1, i, 0.69
COc1ccc(C(=O)OCC(=O)c2ccc(S(=O)(=O)N3CCCCC3)cc2)c(OC)c1
  ., -11, ., 1.7, -10, -10, 1.7, ., i, 0.63
Cc1cc(C)cc(C(=O)NC(=S)Nc2cccnc2)c1
  -11, 1.3, -1, 4.2, 4, 0, -4.4, -2.2, i, 0.73
O=C(O)c1cccc(NC(=O)c2cc(NC(=O)c3ccccc3)cc(NC(=O)c3ccccc3)c2)c1
  -8, 1.7, 5, 2.8, 2, 10, 0.1, 0.9, i, 0.73
COc1ccccc1OCC(=O)N1CCN(C(=O)c2ccco2)CC1
  -4, -3.3, -3, 4.3, 3, 4, -0.6, 0.2, i, 0.73
CC(C)(C)c1nc2scc(-c3cccs3)c2c(=O)o1
  -8, ., -4, 2.3, ., ., ., -0.4, ., 0.68
Nc1ccc(N=Nc2ccccc2)c2cccnc12
  28, 21, 5, 6.3, -50, -60, 4.0, 0.9, i, 0.68
Cc1ccc(C(=O)N/C(=C\c2ccccc2F)c2nc(=S)[nH][nH]2)cc1
  -7, 8.0, ., 0.7, 12, 10, 1.4, -0.5, i, 0.67
Cc1ccccc1C(=O)NNC1=NCCC1
  -13, ., -1, -0.5, ., ., ., -0.6, ., 0.67
Nc1c(NCCC2=CCCCC2)c(=O)[nH]c(=O)n1Cc1ccccc1
  3, ., -4, 1.4, ., ., ., -0.8, ., 0.72
CN(C)/C(=N\S(=O)(=O)c1ccc(Cl)cc1)c1ccc(F)cc1
  1, -1.1, ., ., 7, 11, 3.3, 0.5, i, .
C[C@@H](NC(=O)[C@@H]1Cc2ccccc2CN1)C(=O)NCc1ccco1
  6, 2.9, -3, -2.9, 7, 21, -0.8, 0.8, i, 0.66
C=CCOn1c(=O)c(-c2cc3ccccc3o2)[n+]([O-])c2ccccc21
  11, ., 9, 3.0, ., ., ., 0.2, ., 0.76
Cc1ccc(S(=O)(=O)N2CCC(C(=O)Nc3ccccc3N3CCCCC3)CC2)cc1
  30, -1.7, 12, 5.1, 14, 5, 2.2, 0.1, i, 0.73
CCCC/C=C/C(NC(=O)CCc1ccccc1)c1ccccc1 (centres undefined)
  11, -2.9, -11, 0.6, -1, -2, -1.6, 0.2, i, .
COc1ccc(NC(=O)CCNC(=O)Cn2cnc3sc4c(c3c2=O)CCCC4)c(OC)c1
  21, -2.1, 3, 1.4, 5, 1, 1.8, -0.7, i, 0.67
CCC(C)(C)NC(=O)CC(c1ccc(OC)cc1)n1cccc1 (centres undefined)
  2, ., 0, -1.1, ., ., ., 2.0, ., 0.73
COc1ccc(N2CCN(C(=O)CNC(=O)Cc3ccc(Cl)cc3)CC2)cc1
  4, -1.2, -5, 3.1, 3, -2, 6.7, 0.0, i, 0.68
Cc1ccc(S(=O)(=O)Nc2ccccc2C(=O)Nc2ccc(S(=O)(=O)Nc3nccc(C)n3)cc2)cc1
  -14, ., 4, -25, ., ., ., -0.2, ., 0.69
O=C(COCc1ccccc1)N[C@@H]1c2ccccc2CC[C@H]1OCc1ccccc1
  ., -0.4, ., 1.8, -34, -39, -7.8, ., i, 0.71
S=C(NCc1ccc2c(c1)OCO2)NC1CC1
  -10, 1.4, -6, 4.0, 8, 11, -5.4, 0.5, i, 0.69

# The final two records of the section above open the next one:
# Value order: T cruzi inh, MLL AF4-AF9 inh, Beta apoptosis, UCH37 DUB inh, rRNA inh HTS, rRNA inh HTS OD600, rRNA inh HTS RFP, A1 inh, FGF22 binding, Ecoli growth
O=C(COCc1ccccc1)N[C@@H]1c2ccccc2CC[C@H]1OCc1ccccc1
  ., -0.4, ., 1.8, -34, -39, -7.8, ., i, 0.71
S=C(NCc1ccc2c(c1)OCO2)NC1CC1
  -10, 1.4, -6, 4.0, 8, 11, -5.4, 0.5, i, 0.69
O=C(CN1C(=O)C2C3C=CC(C3)C2C1=O)NCCc1ccccc1 (centres undefined)
  -19, ., -6, 0.6, ., ., ., 0.2, ., 0.78
CC1(C)CC(=O)C2=C(C1)Nc1ccccc1NC2c1ccccc1F (centres undefined)
  -8, -0.4, -2, 8.2, 6, -5, 48, 0.8, i, 0.71
ClC1(Cl)CC1CSc1ncn[nH]1 (centres undefined)
  -5, -1.3, ., 2.5, -3, -3, -1.6, ., i, 0.7
COc1ccc(-c2noc(CCC(=O)N3CCN(c4cc(C)ccc4C)CC3)n2)cc1
  -6, ., -13, 2.8, ., ., ., -0.2, ., 0.84
COc1ccc(/C=C/C(=O)OCC(=O)c2c[nH]c3ccccc23)cc1
  ., 9.0, -3, 1.6, -3, -14, 7.7, -0.3, i, 0.72
CCCCOC(=O)n1c(=O)oc2ccc(S(=O)(=O)N3CCCCC3)cc21
  9, -9.6, 4, -0.5, -7, -8, 5.5, 0.2, i, 0.7
COc1ccc(N2CCN(c3ncnc4c3cnn4-c3ccc(C)cc3C)CC2)cc1
  ?, -1.4, ., -1.3, 6, 0, 5.3, -0.5, i, 0.7
O=C(NCc1ccccc1Cl)C(=O)NCC1CCCN1S(=O)(=O)c1cccs1 (centres undefined)
  9, -0.4, 2, -2.2, -17, -18, -4.5, 2.4, i, 0.63
O=C(NC(=S)Nc1cccc(NC(=O)c2ccccc2)c1)c1cccc([N+](=O)[O-])c1
  -8, ., ., 3.9, ., ., ., -1.1, ., 0.73
COc1ccc(Cl)cc1NC(=O)NCCN1CCCCC1
  -13, 1.5, -4, 7.2, -1, 2, 5.0, 0.5, i, 0.68
CCCc1nc2nc(C)c(NS(=O)(=O)c3ccc(C(C)(C)C)cc3)c(=O)n2[nH]1
  -5, -2.5, -1, 0.7, -5, -7, -1.4, 0.6, i, 0.66
O=C(NC(=S)Nc1ccc2[nH]ncc2c1)c1ccccc1
  -10, ., -3, -0.9, ., ., ., -0.5, ., 0.66
Cc1ccc(C(NC(=O)N2CCOCC2)C(Cl)Cl)cc1F (centres undefined)
  -4, ., -9, 2.7, ., ., ., 0.5, ., 0.73
Cc1c(Cl)cccc1N1C(=O)CC(NNC(=O)c2cccnc2)C1=O (centres undefined)
  -10, -1.7, -2, 2.2, ., ., ., -0.4, i, 0.71
CCOC(=O)N1CCN(C(=O)CSc2nnc(-c3ccc(C(C)(C)C)cc3)o2)CC1
  9, 3.0, 31, 6.1, 8, 9, -0.6, 0.0, i, 0.75
COC(=O)c1ccc(CSc2nc3sc(C(=O)O)c(C)c3c(=O)[nH]2)cc1
  -1, -2.4, -5, 5.3, -16, -12, -3.1, -0.3, i, 0.69
CCCn1cc(SCC(=O)Nc2cc(C)on2)c2ccccc21
  -6, -2.2, -3, 5.8, 5, 11, 2.6, -0.1, i, 0.71
COc1ccc(/C=N/NC(=O)c2cccc(C(=O)N/N=C/c3ccc(OC)cc3)n2)cc1
  -7, -4.6, 5, ., 17, 20, -4.2, 0.2, i, .
COc1cccc(-c2ccc(NC(=O)C3CCCN(CCCn4cccn4)C3)cc2)c1 (centres undefined)
  44, -0.2, 7, 3.6, -7, 1, 7.5, 0.6, ., 0.67
O=C1C2CC=CCC2C(=O)N1c1ccc(NCCc2ccc(O)cc2)c([N+](=O)[O-])c1 (centres undefined)
  9, 13, 2, 5.2, 1, -8, -1.1, -0.8, i, 0.73
CN(C)c1ccc(-c2sc(Nc3ccccc3)n[n+]2-c2ccc(F)cc2)cc1
  19, 4.8, 3, 0.7, 3, 3, -2.8, -0.2, i, 0.6
Nc1cc(S(=O)(=O)Nc2ccccc2Cl)ccc1N1CCCCC1
  ., 1.5, -3, 2.7, -19, -27, 12, 0.2, i, 0.68
CCOc1ccccc1NC(=O)c1ccc(-n2cncn2)nc1
  2, -0.3, 1, -13, 15, 11, -1.2, 0.2, i, 0.65
CCC(=O)Nc1c(C(=O)N2CCCCCC2)cnn1-c1ccc(C)c(C)c1
  -7, ., -2, 4.1, ., ., ., -0.5, ., 0.68
CCOc1cc(/C=N/NC(=O)Nc2ccccc2)ccc1O
  -9, 4.4, 4, ., -23, -15, 1.3, -2.3, i, .
Cc1ccc(C(=O)N/C(=C\c2cccs2)C(=O)N2CCN(C)CC2)cc1C
  -12, 3.3, ., 7.3, 10, 11, -6.3, 0.0, i, 0.71
Cc1oc(=O)c(NC(=O)c2ccccc2)cc1C(C)O (centres undefined)
  -9, -3.9, -4, 4.3, 2, 2, 0.3, 0.7, i, 0.67
COc1ccc(OCC(=O)NC(=O)c2ccccc2)c([N+](=O)[O-])c1
  ., 1.7, 15, -0.9, 7, 14, -1.8, -0.8, i, 0.7
N#Cc1cc(-c2ccccc2)c[nH]c1=O
  -3, ., 3, -349, ., ., ., -1.5, ., 0.65
CCOC(=O)c1ccc2c(c1)nc(SCC(=O)N1CCOCC1)n2CC
  3, 0.5, -5, -1.6, -39*, -25*, 2.2*, 0.4, ., 0.72
CCCCCCCOC(=O)C[N+](C)(C)CCOC1CC2CCC1(C)C2(C)C (centres undefined)
  62*, 13, ., 11, -59, -81, -22, ., i, 0.32*
CC1(C)NC(=O)N(CC(=O)N2CCN(c3ccc([N+](=O)[O-])cc3)CC2)C1=O
  ., -3.1, 1, 9.8, -18, -14, -3.1, 1.6, i, 0.69
CN(C)CC(C)(C)CNS(=O)(=O)c1cccc(Cl)c1Cl
  -3, ., -2, 1.6, ., ., ., 2.9, ., 0.7
